# HSV augment – HSV replication enhancement | HSV replication augmentation in cells, fold increase | 220,000 compounds, 0.005% hits | maximum fold increase | AID 1956;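 active = peak rise of 1.5-fold or more in the series; tested in PC3 cells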;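 also: first round at 10 µM; read as green reporter fluorescence; hits show the peak of a series up to 25 µM; 1 = signal of infected wells without compound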
# GALR2 ag – GALR2 (human) receptor agonism | GALR2-expressing cells, agonist activation read-out | activation, %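 (tested at 5 µM)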 | 140,000 compounds, 0.48% hits | AID 803;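 active = above mean plus 3 SD of all compounds, about 5% in these data, not always enough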;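 also: 0% = vehicle buffer wells and 100% = reference agonist at full effect; tested in CHO reporter cells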
# Target sequence (O43603 whole entry, looked up): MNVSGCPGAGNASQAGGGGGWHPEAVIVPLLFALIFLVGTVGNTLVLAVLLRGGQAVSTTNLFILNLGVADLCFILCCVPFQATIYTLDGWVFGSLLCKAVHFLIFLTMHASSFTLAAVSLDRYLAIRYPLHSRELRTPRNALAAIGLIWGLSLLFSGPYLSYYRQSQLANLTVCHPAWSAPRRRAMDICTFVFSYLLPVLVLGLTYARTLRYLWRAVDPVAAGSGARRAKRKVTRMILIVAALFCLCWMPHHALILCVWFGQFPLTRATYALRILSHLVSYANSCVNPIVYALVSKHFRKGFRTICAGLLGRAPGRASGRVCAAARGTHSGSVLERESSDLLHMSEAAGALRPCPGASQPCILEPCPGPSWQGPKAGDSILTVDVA
# PKD1 inh – PKD1 (human) kinase inhibition; Q15139; PKD1 kinase fluorescence polarization assay; inhibition, %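 (about 10 µM by stock and volumes)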; 200,000 compounds, 0.056% hits; AID 797;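 active = inhibition of 50% or more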;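 also: controls were vehicle for no effect and a reference inhibitor for full effect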
# INS promoter inh – TRM-6 insulin promoter activity inhibition; inhibition, % at 2 µM; TRM-6 cells (human fetal islet line), insulin promoter-eGFP reporter, imaging; reporter expression induced with tamoxifen; AID 1273; 130,000 compounds, 0.9% hits;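 active = inhibition above the mean plus 3 SD, with well images judged a real hit on visual review, cut at about 60% in these data, passing the limit was not always enough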
# RGS16-Gao – regulators of human RGS16-Galphao interaction. AID 1441. binding response (% of control), % at 10 µM. 220,000 compounds, 0.38% hits. O15492+P09471. bead-based flow cytometry RGS16-Galphao binding, fluorescence; actives lie on both sides;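 active = below 25% or above 175%, edge rows of some plates excepted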;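 also: Galphao activated by GDP with aluminum fluoride before binding; 100% = wells without compound and 0% = beads without RGS; some results beyond the cut were filed as inactive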
# Target sequence (O15492 whole entry, looked up): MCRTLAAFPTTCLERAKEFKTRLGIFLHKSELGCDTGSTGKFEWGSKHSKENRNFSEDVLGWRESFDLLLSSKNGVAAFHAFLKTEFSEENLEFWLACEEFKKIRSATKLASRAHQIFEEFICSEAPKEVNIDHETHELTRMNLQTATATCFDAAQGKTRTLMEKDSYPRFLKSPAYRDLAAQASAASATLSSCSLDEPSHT
# Target sequence (P09471 whole entry, looked up): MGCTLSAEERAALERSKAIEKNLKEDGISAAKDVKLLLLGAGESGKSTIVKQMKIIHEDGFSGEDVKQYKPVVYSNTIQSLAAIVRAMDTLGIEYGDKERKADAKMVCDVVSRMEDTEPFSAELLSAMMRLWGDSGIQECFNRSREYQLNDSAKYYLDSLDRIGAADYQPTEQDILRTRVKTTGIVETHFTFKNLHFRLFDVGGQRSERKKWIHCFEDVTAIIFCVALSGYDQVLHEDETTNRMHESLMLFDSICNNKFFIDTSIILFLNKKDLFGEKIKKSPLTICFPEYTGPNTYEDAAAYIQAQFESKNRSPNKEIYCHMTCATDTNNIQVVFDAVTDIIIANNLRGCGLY
# INS promoter inh cell count – also measured in INS promoter inh; calls as there; normalized cell count, %; measured here: cell count, toxicity; reference of the scale not given here;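 cells exposed to compound for 48 h; stained nuclei by imaging scaled within each plate; lower means fewer cells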
# HSV augment primary fold – recorded beside HSV augment, whose call it bears; fold increase; compound at 10 µM; measured here: primary screen fold increase 10 uM; tested in PC3 cells;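 GFP signal in the first replicate; 1 = infected wells without compound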
# Starred values were filed as active, the others as inactive; i = inactive; / = not tested or not shown; [ ] = dose if it differs, or a comment. An unsorted share of the library (roughly 1.2% active in at least one column).
# Start of the listing, in advance:
SMILES,HSV augment,HSV augment primary fold,GALR2 ag,PKD1 inh,INS promoter inh,INS promoter inh cell count,RGS16-Gao
Cc1cc(C)n(CCc2nc(-c3cccs3)cs2)n1,i,0.88,-0.8,-2.1,31.8,143.1,102.8
CCC1(C(=O)O)NC(c2cccc(OC)c2O)C2C(=O)N(c3ccccc3)C(=O)C21 (stereo not given),i,0.87,-0.9,-11.1,-28.6,157.6,97.3
COC(=O)Cn1c(CN2CCc3ccccc3C2)nc2c1c(=O)n(C)c(=O)n2C,i,1.03,/,-10.3,/,/,99.8
COC(=O)c1nnn(-c2cccc(Cl)c2)c1C(=O)OC,i,0.84,/,/,/,/,98.3
COc1ccc(N=C2CCS(=O)(=O)c3sccc32)cc1,i,0.91,/,-4.9,-53.3,178.8,89.2
O=C(O)CC1(CC(=O)NCc2ccc(-c3cccs3)cc2)CCCCC1,i,0.94,/,/,/,/,102.8
OC(COc1ccc(C2C=CCC2)cc1)CN1CCCCC1 (stereo not given),i,0.76,-0.8,4.8,21.4,123.6,101.2
Cc1cc(C)nc(-n2ncc3c2CC(c2ccc(F)cc2)CC3=O)n1 (stereo not given),i,0.93,/,1.0,/,/,102.5
CCOC(=O)c1[nH]c(C)c(/C(O)=C2\C(=O)C(=O)N(CCCN(CC)CC)C2c2cccnc2)c1C (stereo not given),i,1,-1.0,-7.4,0.0,191.8,/
CCc1ccc(C(=O)COC(=O)c2cnc(C)cn2)cc1,i,0.86,/,-1.5,/,/,117.6
Cc1ccc(C(=O)NC2=NCCS2)cc1,i,0.96,/,/,/,/,94.6
CC1(C)CC(=O)C(C=NCCN2CCN(CCc3ccccc3)CC2)=C(O)C1,i,0.94,-1.4,-5.2,-20.0,198.6,92.6
CSc1ncccc1C(=O)Nc1ccc(OC(F)(F)F)cc1,i,0.98,/,2.3,/,/,96.4
CCCOc1cccc(-c2nc3ccccc3c(=O)o2)c1,i,1.08,/,-4.9,/,/,97.5
COCCNC(=O)COC(=O)c1ccc(S(=O)(=O)N2CCOCC2)cc1,i,0.97,/,2.8,/,/,102.1

# All compounds of this part (from the top)
SMILES,HSV augment,HSV augment primary fold,GALR2 ag,PKD1 inh,INS promoter inh,INS promoter inh cell count,RGS16-Gao
Cc1cc(C)n(CCc2nc(-c3cccs3)cs2)n1,i,0.88,-0.8,-2.1,31.8,143.1,102.8
CCC1(C(=O)O)NC(c2cccc(OC)c2O)C2C(=O)N(c3ccccc3)C(=O)C21 (stereo not given),i,0.87,-0.9,-11.1,-28.6,157.6,97.3
COC(=O)Cn1c(CN2CCc3ccccc3C2)nc2c1c(=O)n(C)c(=O)n2C,i,1.03,/,-10.3,/,/,99.8
COC(=O)c1nnn(-c2cccc(Cl)c2)c1C(=O)OC,i,0.84,/,/,/,/,98.3
COc1ccc(N=C2CCS(=O)(=O)c3sccc32)cc1,i,0.91,/,-4.9,-53.3,178.8,89.2
O=C(O)CC1(CC(=O)NCc2ccc(-c3cccs3)cc2)CCCCC1,i,0.94,/,/,/,/,102.8
OC(COc1ccc(C2C=CCC2)cc1)CN1CCCCC1 (stereo not given),i,0.76,-0.8,4.8,21.4,123.6,101.2
Cc1cc(C)nc(-n2ncc3c2CC(c2ccc(F)cc2)CC3=O)n1 (stereo not given),i,0.93,/,1.0,/,/,102.5
CCOC(=O)c1[nH]c(C)c(/C(O)=C2\C(=O)C(=O)N(CCCN(CC)CC)C2c2cccnc2)c1C (stereo not given),i,1,-1.0,-7.4,0.0,191.8,/
CCc1ccc(C(=O)COC(=O)c2cnc(C)cn2)cc1,i,0.86,/,-1.5,/,/,117.6
Cc1ccc(C(=O)NC2=NCCS2)cc1,i,0.96,/,/,/,/,94.6
CC1(C)CC(=O)C(C=NCCN2CCN(CCc3ccccc3)CC2)=C(O)C1,i,0.94,-1.4,-5.2,-20.0,198.6,92.6
CSc1ncccc1C(=O)Nc1ccc(OC(F)(F)F)cc1,i,0.98,/,2.3,/,/,96.4
CCCOc1cccc(-c2nc3ccccc3c(=O)o2)c1,i,1.08,/,-4.9,/,/,97.5
COCCNC(=O)COC(=O)c1ccc(S(=O)(=O)N2CCOCC2)cc1,i,0.97,/,2.8,/,/,102.1
COc1ccc(N=C2C(=Nc3ccc(OC)cc3)N(c3ccc(OC)cc3)C(=S)N2c2ccccc2)cc1,i,0.81,-0.9,-2.5,3.3,74.6,101.6
Cc1ccc2oc(-c3cc(NC(=O)c4ncn[nH]4)ccc3O)nc2c1,i,0.97,/,5.4,/,/,101.0
N#CC1=C(SCC(=O)c2ccccc2)NC2=C(C(=O)CCC2)C1c1ccco1 (stereo not given),/,/,0.1,5.4,-123.1,38.4,102.4
Cc1[nH]c(=O)c(C#N)c2c1CCCC2,i,0.98,-1.5,-8.4,23.7,43.5,101.0
O=C(c1ccc(Cl)c(Cl)c1)N(Cc1ccco1)c1ccc(O)cc1,i,0.98,-1.6,-4.5,0.0,84.1,103.3
Clc1ccc(-c2nnc(CCc3ccccc3)o2)c(Cl)c1,i,1.05,-4.0,8.1,/,/,104.9
Cn1c2c(c(=O)n(C)c1=O)C(c1cccc(F)c1)C(C#N)=C(N)O2 (stereo not given),i,0.95,/,/,/,/,101.8
O=C(/C=N/O)NCc1ccncc1,i,0.94,-0.7,-1.5,5.3,73.6,105.8
Cc1c(C)c2cc3c4c(oc3c(C)c2oc1=O)CCCC4,i,0.72,-3.5,-3.0,/,/,111.3
Cc1ccc(S(=O)(=O)Nc2nc(C)c(C(=O)NN)s2)cc1,i,1.01,/,/,/,/,98.5
Cn1c(NC(=O)c2ccccc2F)c(-c2cccs2)c(=O)c2ccccc21,i,1.18,/,/,/,/,96.1
Cc1ccc2nc(C(F)(F)F)c(C#N)c(N)c2c1,i,0.74,-1.8,-6.5,/,/,102.5
CC1CC(C)CN(C/C=C/c2ccccc2[N+](=O)[O-])C1 (stereo not given),i,0.91,-1.6,-6.0,/,/,101.2
O=C(COc1ccc(-c2ccccc2)cc1)N1CCN(S(=O)(=O)Cc2ccccc2)CC1,i,0.57,0.5,1.7,-27.6,144.2,102.4
O=C(CONS(=O)(=O)c1ccc(Cl)cc1)NCCNc1ncc(C(F)(F)F)cc1Cl,i,0.94,/,3.5,-23.5,92.8,102.3
Fc1ccc(CNC(=S)NC2CCCCC2)cc1,i,1.06,/,7.0,11.8,146.1,97.1
COC(=O)c1c(NC(=O)COC(=O)c2ccccc2O)sc2c1CCCCC2,i,1,-1.0,-10.3,/,/,82.8
COc1ccc2c(c1)oc(=O)c1ccccc12,i,0.89,/,-0.6,/,/,104.6
O=C(Nc1ccccc1)c1ccc(CSc2ccccn2)cc1,i,0.96,1.1,2.4,6.7,87.7,110.7
CN(c1ccccc1)S(=O)(=O)c1cccc(C(=O)Nc2ncn[nH]2)c1,i,0.94,/,/,/,/,103.2
O=C(CSc1nnc(-c2ccccc2)n1Cc1ccccc1)NNC(=O)c1ccccc1O,i,1.04,0.3,1.8,8.3,78.4,104.2
Cc1ccc(NC(=O)COc2ncnc3ccccc23)cc1S(=O)(=O)N1CCOCC1,i,0.8,-0.8,-8.6,-30.8,87.9,102.2
COc1ccc(S(=O)(=O)N2CCCCC2)cc1NC(=S)Nc1ccccc1,i,0.94,-1.1,6.2,-18.9,119.4,98.3
Cc1cc2nc(CCN(Cc3cccnc3)C(=S)Nc3ccccc3)[nH]c2cc1C,i,0.81,-1.4,-14.7,0.0,150.8,107.8
Cc1ccc(S(=O)(=O)N2CCC(C(=O)N[C@@H](C)C(=O)NC3CCS(=O)(=O)C3)CC2)cc1 (stereo not given in full),i,0.94,-2.2,-9.0,-21.4,94.2,117.4
CCCn1nnc(NC(=O)c2ccc([N+](=O)[O-])cc2Cl)n1,i,1.02,/,0.2,/,/,97.2
CC/C(=N\NC(N)=O)c1ccc(OC)c(OC)c1,i,0.88,/,/,/,/,100.8
Cc1ccc(O)c(NC(=S)NC(=O)COc2ccc(Br)cc2)c1,i,1,/,-9.9,/,/,106.1
COc1ccc(NCc2ccc([N+](=O)[O-])s2)cc1,i,0.92,0.2,0.7,-20.0,149.6,108.7
Cc1ccc(/C=C2/C(=O)c3ccc(C(=O)O)cc3C2=O)o1,i,0.87,/,0.2,/,/,95.5
O=C(Oc1ccc2c3c(c(=O)oc2c1)CCC3)c1ccccc1[N+](=O)[O-],i,1.26,0.6,-6.3,/,/,91.8
CCOc1ccc(S(=O)(=O)N(CC(=O)N2CCc3ccccc32)Cc2ccco2)cc1,i,0.88,-0.6,-1.6,15.6,94.5,101.5
Cc1ccc(S(=O)(=O)N2CCC(=O)N(CCOCc3ccc(F)cc3)CC2)cc1,i,1.12,-2.6,-0.7,-40.9,67.1,61.4
COc1cc(-c2cc(C(=O)NN3CCN(C)CC3)c3ccccc3n2)cc(OC)c1OC,i,0.97,-1.1,-12.9,11.1,110.4,281.8*[activator]
CC1CCCCC1NC(=O)CCCn1c(=S)[nH]c2ccccc2c1=O (stereo not given),i,0.87,/,-1.0,-6.7,83.4,94.7
CCCOc1ccc(C(=O)N2CCN(c3ccc(N)cc3Cl)CC2)cc1,i,0.96,-0.9,-2.6,-28.9,100.0,102.2
Cc1c(C(=O)N/N=C/C(C)C)[nH]c2c([N+](=O)[O-])cccc12,i,0.82,-1.9,5.0,-50.0,32.2,89.0
CN(C)S(=O)(=O)c1ccc(Cl)c(NC(=O)COC(=O)CCC(=O)c2cccs2)c1,i,1.36,/,/,/,/,101.0
COc1cc(NC(=S)NCCCO)c(OC)cc1Cl,i,0.99,/,3.9,/,/,102.3
O=C(CCCCn1c(=O)[nH]c2ccccc2c1=O)NCc1ccc2c(c1)OCO2,i,1.06,-1.7,1.7,/,/,101.9
Cc1ccc(S(=O)(=O)Nc2nc3ccccc3nc2NCc2ccco2)cc1C,/,/,-0.8,-3.3,/,/,99.2
CCCNC(=O)N1CCN(S(=O)(=O)c2ccc(C)c(C)c2)CC1,i,0.89,-3.6,-15.8,66.7,135.7,/
CC(CC(=O)O)CC(=O)NNC(=O)c1cccc(Br)c1 (stereo not given),i,0.9,/,-1.4,/,/,97.4
COc1ccc(CN2CC(=O)N(c3ccccc3C)C2=S)cc1OC,i,0.8,/,10.1,-91.7,88.9,103.1
CCOC(=O)c1cnn(-c2ncnc3c2cnn3C)c1N,i,0.99,/,/,/,/,101.8
# (list continues)
SMILES,HSV augment,HSV augment primary fold,GALR2 ag,PKD1 inh,INS promoter inh,INS promoter inh cell count,RGS16-Gao
O=C(Nc1ccc(Cl)cc1)Nc1ccc(C(=O)N2CCOCC2)cc1,i,0.93,/,/,/,/,102.9
C[N+](C)(C)CCCCCCCCCC[N+](C)(C)C,i,0.66,-0.4,-7.3,13.0,81.3,/
Cc1cc(C)nc(SCC(=O)N/N=C/C=C/c2ccccc2)n1,i,1.01,-0.5,-4.3,22.4,112.3,101.7
C=CCn1c(SCC(=O)NC(C)(C)C)nnc1-c1ccccc1O,i,0.82,-1.6,-3.4,-43.5,73.1,94.1
OCc1nc2ccccc2n1C/C=C/c1ccccc1,i,0.96,-0.4,-5.7,8.6,95.0,113.8
COc1ccc(Cl)cc1NC(=O)Nc1cn(C)nc1C,i,1.04,/,/,/,/,100.2
COC(=O)c1[nH]c2cc(OC)ccc2c1NC(=O)c1nonc1C,i,0.72,-3.2,-1.6,5.6,102.1,100.1
Nc1nc2c(F)c(F)c(F)cc2s1,i,1,/,0.7,/,/,101.2
CC1(C)CC(=O)C(C(C2=C(O)CC(C)(C)CC2=O)c2cccc(O)c2)C(=O)C1 (stereo not given),i,0.79,-1.8,-13.2,/,/,91.2
COC(=O)c1ccccc1NC(=O)c1ccc2c(c1)OCCO2,i,0.913,-1.4,-2.6,-327.8,60.2,231.4*[activator]
CC(=O)NCCC(=O)N1CCCC(C(=O)c2ccc3c4c(cccc24)CC3)C1 (stereo not given),i,0.97,/,-3.9,/,/,108.2
CCCNC(=O)c1cn(CC)c2cc(N3CCN(C)CC3)c(F)cc2c1=O,i,0.76,-1.5,-0.1,0.0,40.7,95.9
Cc1cccc(/C(N)=N/OC(=O)N2CCOCC2)c1,i,1.17,-3.6,-9.0,/,/,97.3
NC(=O)CSc1ccc(F)cc1,i,1.03,/,0.2,/,/,101.6

# Screening data deposited in PubChem by several laboratories.
